RE007 growth inh: less growth of the S. pombe RE007 Vpr strain; S. pombe RE007 Vpr strain, BacTiter-Glo ATP luminescence, 24 h; control for the full effect not named in the record; AID 651644; hit rate 0.21% among 360,000; Potency, µM (series often up to 92.2 µM), inactives show top-dose activity change, negative = less growth; active = well fitted falling curve with a large enough effect; inconclusive = small, poorly fitted or top-dose-only effect; inactive = no such curve, though single readings can be large or run the other way;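 further: nearly all actives have a fitted effect of over 50% in size; the assay follows cell death caused by Vpr and the record does not say whether a fall means rescue or toxicity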
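Fission yeast RE007 carrying one integrated HIV-1 vpr copy, seeded at OD 0.01 in PMG+AL medium with 23 nL pinned compound. Grown 24 h at 30 degrees; viability read by BacTiter-Glo luminescence after 5 min.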
StopGo reporter: lowers the luciferase signal of an FMDV 2A StopGo reporter. human cells with a luciferase reporter of 2A StopGo recoding; control for the full effect not named in the record. Potency, µM (top dose mostly 57.9 µM), inactives show top-dose signal change, negative = less light. hit rate 1.2% among 410,000. AID 1159524; active = well fitted falling curve with a large enough effect; inconclusive = small, poorly fitted or top-dose-only effect; inactive = no such curve, though single readings can be large or run the other way; tested in HEK293T cells; further: nearly all actives have a fitted effect of over 45% in size; luciferase light after 4 h
An asterisk follows results filed as active; ? = inconclusive; & = joins results of further samples; [ ] = remark or other dose. On the % scale 0 is the no-effect control and ±100 the full control effect; potency means the concentration at half of the fitted maximal effect.

SMILES	RE007 growth inh	StopGo reporter
CN(C)c1ccc(NC(=O)Nc2nc(C(N)C3CCCCC3)cs2)cc1 (stereo not drawn)	-9%	0%
O=C(NCC(O)c1nc2ccccc2[nH]1)c1cc([N+](=O)[O-])ccc1F (stereo not drawn)	-3%	?
O=C(Nc1ccc(F)cc1)C(c1cc2ccccc2o1)N1CCN(c2ccncc2)CC1 (stereo not drawn)	-21%	8%
Cc1cccc(S(=O)(=O)NC(=O)C2(C)CCN2C(=O)C2(c3ccc(Cl)cc3)CC2)c1 (stereo not drawn)	2%[18.4 µM]	21%
C[C@H](CO)N1C[C@H](C)[C@@H](CN(C)Cc2ccc(Cl)c(Cl)c2)OCc2cnnn2CCCC1=O	-10%	-21%
O=C(O)c1ccccc1-c1ccccc1C(=O)Nc1ccc2oc(=O)c3ccccc3c2c1	-20%	-6%
CC(C)Oc1cccc(C(=O)Nc2nnc([C@H]3C[C@H](O)[C@@H](CO)O3)s2)c1	1%	4%
CCN(CC)C(=O)C1=C(C)N(CCCN2CCCC2=O)C(=O)C(CC(=O)NCc2cccs2)C1 (stereo not drawn)	7%	0%
O=C(Cc1cccc(NC(=O)C2CCCN(C(=O)C3CCC3)C2)c1)Nc1cccc(C(=O)N2CCCCC2)c1 (stereo not drawn)	10%	-13%
C[C@@H]1CN([C@H](C)CO)C(=O)CCCn2nncc2CO[C@H]1CN(C)Cc1cccc(C(=O)O)c1	-4%	-4%
O=C1C[C@@H]2C(=O)N(c3ccccc3)C(=O)[C@@H]2[C@@H]2CN(S(=O)(=O)c3ccccc3)[C@@H](c3ccccc3)[C@H]12	-8%	0%
COC(=O)[C@@]1(Sc2ccc(C)cc2)CC(=O)N(c2ccccc2)[C@@H]1c1ccccc1	1%	?
CCNC(=S)Nc1ccc2c(c1)c(=O)n(C)n2-c1cc(C)cc(C)c1	-10%	-3%
Cc1cc(C(=O)CCC(=O)N(C)CC2COc3ccccc3O2)c(C)s1 (stereo not drawn)	-15%	?
COC(=O)C[C@H]1C=C[C@H](NC(=O)Nc2ccccc2)[C@@H](CO)O1	12%	3%
CC(C)N1CC2(CC(c3ccccc3F)=NO2)CN1C(=O)c1ccc(C(C)(C)C)cc1 (stereo not drawn)	4%	7%
Nc1c(Cl)cnn(-c2ccccc2)c1=O	-13%	3%
COc1ccc(CN(C)C[C@H]2OCCCC[C@@H](C)Oc3ccc(NS(C)(=O)=O)cc3C(=O)N([C@H](C)CO)C[C@@H]2C)cc1	2%	-10%
CCOC(=O)C1=CC[C@@H](c2ccccc2C(F)(F)F)N(S(=O)(=O)c2ccc(C)cc2)[C@H]1c1ccc(C#N)cc1	6%	-17%
Brc1ccc2nc(C3CCCCC3)c(CC3CCCCC3)n2c1	-1%	-3%
OCCC#Cc1ccc(N2C(c3ccsc3)=Cc3ccc(F)cc3C2c2c[nH]c3ccccc23)cc1 (stereo not drawn)	-5%	-10%
N#CCCN(Cc1ccccc1)C(C(=O)NC1CCCCC1)C1CC1 (stereo not drawn)	-5%	-20%
CC(C)C(N)c1csc(NC(=O)Nc2cccc(Cl)c2)n1 (stereo not drawn)	15%	5%
CC1(C(=O)NS(=O)(=O)C2CC2)CCCN(C(=O)c2ccccc2OC(F)(F)F)C1 (stereo not drawn)	-3%	-6%
NC(COCc1ccccc1)c1csc(Nc2cc(Oc3ccccc3)ncn2)n1 (stereo not drawn)	-6%[18.4 µM]	-22%

Quoted at random: 3 compounds from above
SMILES	RE007 growth inh	StopGo reporter
CCN(CC)C(=O)C1=C(C)N(CCCN2CCCC2=O)C(=O)C(CC(=O)NCc2cccs2)C1 (stereo not drawn)	7%	0%
Cc1cc(C(=O)CCC(=O)N(C)CC2COc3ccccc3O2)c(C)s1 (stereo not drawn)	-15%	?
O=C(Nc1ccc(F)cc1)C(c1cc2ccccc2o1)N1CCN(c2ccncc2)CC1 (stereo not drawn)	-21%	8%

Next part
SMILES	RE007 growth inh	StopGo reporter
COC(=O)C[C@H]1CC[C@H](NC(=O)Nc2ccccc2)[C@@H](CO)O1	23%	-8%
CCCCn1c(N)c(N(CC(C)C)C(=O)CSc2nnc(C)n2-c2ccccc2)c(=O)[nH]c1=O	-12%	-8%
O=C1NC[C@H](CCCCN2C[C@H](Cc3ccc(O)cc3)N(CCc3ccc(O)cc3)C(=O)C2=O)N(CCc2ccc(O)cc2)C1=O	-2%	-6%
Cc1ccc(S(=O)(=O)N2CCC[C@H]2C(=O)OCC(=O)N2c3ccccc3NC(=O)C2(C)C)cc1	-24%	0%
COc1ccc(CC(=O)N(C)c2ccccc2)cc1S(=O)(=O)N1CCOCC1	7%	0%
COc1ccc(Cc2c(-c3cccc(Br)c3)nc3ccc(Br)cn23)c(C)c1	-21%	0%
Cn1c(N)c(C#N)c(-c2ccccc2)c(C#N)c1=O	11%	-18%
O=C(NC(c1ccccc1)c1ccc2ccccc2n1)C1CCN(CCOc2ccc(Cl)cc2)CC1 (stereo not drawn)	-6%	32µM*
N#Cc1ccccc1S(=O)(=O)N1CCN(Cc2cc3c(cc2Br)OCCO3)CC1	-4%	-14%
CC(=NNC(=S)N1CCCCC1)c1ccccn1	?	?
CN(C)C(=O)c1cccc(-c2cccc3nccn23)c1	-5%	-9%
CC1CCCC(NC(=O)COC(=O)C2=COCCO2)C1C (stereo not drawn)	-8%	?
c1ccc(N2Cc3ccccc3-n3nncc3C2)nc1	8%	-19%
CCCCOCCCNC(=O)C[C@@H]1C[C@@]2(C(=O)OCC)CCCC=C2N(Cc2ccc(Cl)cc2Cl)C1=O	0%	-23%
COc1ccc(CNC(=O)CCNC(=O)N2CC(=O)Nc3ccccc32)cc1	-15%	-20%
O=C1C=C(OCCF)CC(c2cccc(Cl)c2)O1 (stereo not drawn)	21%	-14%
CCCC(=O)N1CCC1(C)C(=O)Nc1ccc(C)c(C)c1 (stereo not drawn)	-14%	0%
CCC(CC)C(=O)N(C)c1c(C)nc2c(OCc3ccc(C(F)(F)F)cc3)cccn12	-14%[18.4 µM]	?
CCCn1nc(C(=O)Nc2cc(OCC)c(N3CCOCC3)cc2OCC)c2ccccc2c1=O	11%	?
CC(=NC1CCCCC1)c1ccc(O)cc1O	-24%	-9%
COc1ccc(NS(=O)(=O)c2cccc(C(=O)NCc3ccccc3CN3CCOCC3)c2)cc1	-18%	-16%
CCOC1=C2[C@@H](CN(S(=O)(=O)c3ccc(C)cc3)[C@H]2c2ccccc2)[C@H]2C(=O)N(Cc3ccccc3)C(=O)[C@H]2C1	23%	-10%
CCC(=O)N1CCCC1(C)C(=O)Nc1ccc2nc(C)ccc2c1 (stereo not drawn)	1%	-6%
CC1ON=C(c2cccc3ccccc23)N(C)C1=O (stereo not drawn)	-2%[18.4 µM]	-14%
CCCCC(=O)N(C)c1c(C)nc2ccc(C(=O)N(C)CCN(C)C)cn12	-1%	-25%
SMILES	RE007 growth inh	StopGo reporter
COc1cc(-c2cnc3c(NC(C)=O)cc(-c4cccc(C(=O)NCCO)c4)cn23)cc(OC)c1OC	-3%	-10%
CCN(CC)C(=O)c1cccc(-c2csc(C(O)c3ccco3)n2)c1 (stereo not drawn)	20%	-2%
CC(C)(C)n1nnnc1C(c1ccccc1)N1CCN(c2ncccc2C(F)(F)F)CC1 (stereo not drawn)	-9%&-8%	?
O=[N+]([O-])c1cnc(Sc2ccncn2)c([N+](=O)[O-])c1	?	?
CN(C)c1ccc(-c2csc(C(O)c3cccc(Cl)c3)n2)cc1 (stereo not drawn)	0%	6%
CCCCCCCCN1C(=O)[C@H](CC(=O)NCc2ccccc2)C[C@@]2(C(=O)OCC)CCC=C12	-4%	-2%
CC(=O)Nc1cccc(C(=O)NNC(=O)c2ccc(NS(=O)(=O)c3cccs3)cc2)c1	18%	-4%
O=c1c2ccccc2nc2n1CCc1ccc(Br)cc1-2	-8%	1%
CSc1ccc(Cn2c(C)c(C(=O)NCc3ccc(Cl)c(Cl)c3)sc2=O)cc1	-1%[18.4 µM]	-2%
CCNC(=O)C1(C)CCCN1Cc1cccc(C(F)(F)F)c1 (stereo not drawn)	4%[18.4 µM]	-7%
CC1(C(=O)NCc2cccc(C(F)(F)F)c2)CCN1CCc1ccccc1 (stereo not drawn)	-11%[18.4 µM]	-28%
Cc1cc(C)c(C#N)c(OCC2CCCO2)n1 (stereo not drawn)	3%[18.4 µM]	-18%
CC1(C(=O)Nc2ccccc2Br)CCN1C(=O)CC1CC1 (stereo not drawn)	7%[18.4 µM]	3%
CCCCCC(=O)N1C[C@@H](n2cc(C3CC3)nn2)[C@H](O)C[C@@H]1c1ccc(Cl)cc1	-7%	0%
Nc1ccccc1C(=O)NC1CCCNC1=O (stereo not drawn)	-4%	-18%
COC1=CC(=NCl)C=CC1=NCl	-11%	-18%
CN1CCN(c2ccc(-c3cc(NC=O)c4ncc(-c5ccc(F)c(Cl)c5)n4c3)cc2)CC1	-20%[18.4 µM]	14%
COC(=O)C[C@H]1C=C[C@@H](NS(=O)(=O)c2ccccc2)[C@@H](CO)O1	1%	-13%
O=C(NNC(=O)c1ccccc1F)c1ccc(-c2ccccc2Cl)o1	-17%	44%[activator]
O=C1C=C(C#Cc2ccc(Oc3ccccc3)cc2)C[C@@H](c2ccc(F)cc2)C1	27%	-8%
CC(C)C[C@@H](CNCC(=O)[C@H](CC(C)C)NC(=O)c1[nH]cnc1C(=O)N[C@H](CN)CC(C)C)NC(=O)c1nc[nH]c1C(=O)N[C@@H](Cc1ccccc1)C(=O)O	5%	-15%
CC(=O)Nc1cccc(-c2ccnc3c2CC(C(=O)NCc2cccnc2)O3)c1 (stereo not drawn)	9%[18.4 µM]	-6%
CCN(CC)C(=O)C1=C(C)N(Cc2ccc(C(C)(C)C)cc2)C(=O)C(CC(=O)NCCCCc2ccccc2)C1 (stereo not drawn)	-3%	?
O=C(c1ccccc1)N1CCN(c2cc(Cl)nc3cc(-c4cccc(Cl)c4)nn23)CC1	1%	?
CN(c1ccccc1)S(=O)(=O)c1ccc(C(=O)Nc2cccc(S(=O)(=O)N3CCOCC3)c2)cc1	-5%	?

Single records, as listed above. Values in the order: RE007 growth inh	StopGo reporter
`CSc1ccc(Cn2c(C)c(C(=O)NCc3ccc(Cl)c(Cl)c3)sc2=O)cc1` is listed as -1%[18.4 µM]	-2%
`CCCCCC(=O)N1C[C@@H](n2cc(C3CC3)nn2)[C@H](O)C[C@@H]1c1ccc(Cl)cc1` is listed as -7%	0%

Returning to the listing; the two compounds before the break are reprinted first.
SMILES	RE007 growth inh	StopGo reporter
O=C(c1ccccc1)N1CCN(c2cc(Cl)nc3cc(-c4cccc(Cl)c4)nn23)CC1	1%	?
CN(c1ccccc1)S(=O)(=O)c1ccc(C(=O)Nc2cccc(S(=O)(=O)N3CCOCC3)c2)cc1	-5%	?
O=S(=O)(c1cccc2ccccc12)N1Cc2ccccc2-n2nncc2C1	3%	?
OC(c1ccc(F)cc1)c1ncc(-c2ccccc2F)[nH]1 (stereo not drawn)	?	109%[activator]
COCCn1c(SCC(=O)Nc2ccc(F)cc2)nc2c(c1=O)SCC2	5%	18%
COc1ccc(CN2CCNC(=O)C2CC(=O)N(C)C2CCOCC2)cc1OC (stereo not drawn)	-4%	0%
COc1cc(F)ccc1-c1cc(C(=O)Nc2cc(OC)c(OC)c(OC)c2)[nH]n1	12%	0%
Cc1ccccc1NC(=O)Nc1nc(C2CCC(=O)N2)cs1 (stereo not drawn)	-5%	-25%
S=c1[nH]c2nc(Cl)c(Cl)nc2[nH]1	3%	0%
CS(=O)(=O)c1ccc(-c2cc(NC=O)c3ncc(-c4ccc(F)cc4)n3c2)cc1	-9%	-29%
CCc1nc2ccc(C(=O)Nc3ccc(OC)c(OC)c3)cn2c1N(C)C(=O)Cc1ccccc1	-14%[18.4 µM]	-11%
O=C(NCCN1CCOCC1)c1cc(-c2ccccc2)nc2ccccc12	7%	-23%
Cc1ccccc1-c1cc2nc(NCCOc3ccccc3)n(C)c(=O)c2s1	10%	-13%
CCN1C[C@@H]2[C@@H]3C(=O)N(C)C(=O)[C@@H]3[C@](Cc3ccccc3)(C1=O)N2C(=O)c1ccc(F)cc1	7%	2%
CCCCCCCCC(c1nc2ccccc2[nH]1)N1CCN=C1c1cc2ccccc2[nH]1 (stereo not drawn)	18%	-22%
Cc1ccc(COC[C@H](CC(C)C)N2CCN(C(=O)c3cccc(C(F)(F)F)c3)CCC2=O)cc1	-7%	-29%
C[C@H](CO)N1C[C@H](C)[C@@H](CN(C)Cc2ccccn2)Oc2ncc(-c3ccccc3)cc2C1=O	-7%	-18%
COCCCN1C(=O)C(CC(=O)NCC2CCCCC2)CC(C(=O)N(C(C)C)C(C)C)=C1C (stereo not drawn)	14%	0%
CC1(C(=O)NS(=O)(=O)c2ccccc2C(F)(F)F)CCN1C(=O)CCc1cccs1 (stereo not drawn)	10%	27%
O=C1c2cccc3cccc(c23)C(=O)N1Cc1ccccn1	-1%	-8%
Cc1cccc(CN(C)C[C@H]2OCc3cnnn3CCCC(=O)N([C@@H](C)CO)C[C@@H]2C)c1	7%	-4%
O=C(NCc1nnnn1-c1ccc(F)cc1)c1ccc2ccccc2c1	10%	0%
CC(C)C[C@@H](CNCC(=O)[C@H](CC(C)C)NC(=O)c1[nH]cnc1C(=O)N[C@@H](C)CN)NC(=O)c1nc[nH]c1C(=O)N[C@@H](C)C(=O)O	69%	0%

These rows are one share of the data. The share of hits here may be higher or lower than overall.
